Screening results (PubChem BioAssay)
2A StopGo: lowers the luciferase signal of an FMDV 2A StopGo reporter; 1.2% of 410,000 active; human cells with a luciferase reporter of 2A StopGo recoding; control for the full effect not named in the record; AID 1159524; Potency, µM (highest dose often 57.9 µM), without a hit: top-dose signal change, negative = less light; active = well fitted falling curve with a large enough effect; inconclusive = small, poorly fitted or top-dose-only effect; inactive = no such curve, though single readings can be large or run the other way; tested in HEK293T cells; note: % is set by controls: 0 for no effect and ±100 for the full control effect; nearly all actives have a fitted effect of over 45% in size; luciferase light after 4 h
NS1 function inh: influenza NS1 inhibition; S. cerevisiae slowed by influenza A NS1, growth recovery by OD600; Potency, µM (highest dose often 46.1 µM), without a hit: top-dose activity, positive = more growth; 0.4% of 270,000 active; active means well fitted rising curve with a large enough effect; inconclusive means small, poorly fitted or top-dose-only effect; inactive means no such curve, though single readings can be large or run the other way; note: nearly all actives have a fitted effect of over 50% in size
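S. cerevisiae expressing influenza A NS1, grown in glucose, washed, then diluted 1:100 into pH 6.0 -URA galactose medium with 23 nl compound. Growth recovery read as OD600; NS1-free strain serves as control.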
RE007 growth inh: less growth of the S. pombe RE007 Vpr strain; S. pombe RE007 Vpr strain, BacTiter-Glo ATP luminescence, 24 h; control for the full effect not named in the record; Potency, µM (highest dose often 92.2 µM), for inactives: at the top dose activity change, negative = less growth; 0.21% of 360,000 active; AID 651644; active = well fitted falling curve with a large enough effect; inconclusive = small, poorly fitted or top-dose-only effect; inactive = no such curve, though single readings can be large or run the other way;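 note: % is set by controls: 0 for no effect and ±100 for the full control effect; nearly all actives have a fitted effect of over 50% in size; the assay follows cell death caused by Vpr and the record does not say whether a fall means rescue or toxicity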
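Fission yeast RE007 carrying one integrated HIV-1 vpr copy, seeded at OD 0.01 in PMG+AL medium with 23 nL pinned compound. Grown 24 h at 30 degrees; viability read by BacTiter-Glo luminescence after 5 min.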
Cruzain Triton: inhibitors of Trypanosoma cruzi cruzain with detergent | P25779 | purified cruzain, Z-FR-AMC fluorescence, 0.01% Triton | Potency, µM, without a hit: max response, negative = inhibition, actives largely listed as inhibitors | 0.43% of 200,000 active | AID 1478;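 note: plate controls were neutral wells for no effect and buffer without enzyme for full effect; nearly all actives have a fitted effect of over 40% in size; top concentration of the series not given in the record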
Target sequence (P25779 123-467 limits assumed): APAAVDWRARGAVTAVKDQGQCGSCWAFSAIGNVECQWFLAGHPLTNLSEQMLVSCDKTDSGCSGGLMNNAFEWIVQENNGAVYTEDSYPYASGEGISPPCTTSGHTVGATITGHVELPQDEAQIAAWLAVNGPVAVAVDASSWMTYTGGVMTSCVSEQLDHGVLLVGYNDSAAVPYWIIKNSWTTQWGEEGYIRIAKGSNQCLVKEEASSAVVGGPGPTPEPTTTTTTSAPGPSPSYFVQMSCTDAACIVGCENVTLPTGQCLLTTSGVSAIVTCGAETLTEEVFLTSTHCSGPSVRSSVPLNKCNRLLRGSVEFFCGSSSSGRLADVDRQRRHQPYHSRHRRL
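Detergent-containing run (0.01% Triton X-100) in acetate buffer pH 5.5 with 5 mM DTT: enzyme at 1.5 nM final, 15 min compound preincubation at room temperature, then 2 uM Z-FR-AMC substrate. Activity taken as 60 s fluorescence increase at 360/450 nm.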
LASV entry inh: Lassa virus entry inhibition; Lassa virus pseudotype entry inhibition, cell reporter; control for the full effect not named in the record; Potency, µM (series often up to 37.9 µM), without a hit: at the highest dose activity change, negative = inhibition, most hits filed as inhibitors; 1.2% of 300,000 active; active means well fitted inhibition curve with a large enough effect; inconclusive means small, poorly fitted or top-dose-only effect, or effect the other way; inactive means flat fitted curve, though single readings scatter; tested in HEK293 cells; note: % is set by controls: 0 for no effect and ±100 for the full control effect; nearly all actives have a fitted effect of over 50% in size; luciferase read-out
Marburg entry inh: blocks Marburg virus binding to or entry into cells; Potency, µM (highest dose often 37.8 µM), for the others: at the top dose activity change, negative = inhibition, usual class: inhibitors; 1.8% of 300,000 active; Marburg virus pseudotyped entry inhibition, cell reporter; control for the full effect not named in the record; about a third of the inactives were read at about 46 µM; AID 540276; active = well fitted inhibition curve with a large enough effect; inconclusive = small, poorly fitted or top-dose-only effect, or effect the other way; inactive = flat fitted curve, though single readings scatter; tested in HEK293 cells; about a fifth of its hits are not listed in these tables; note: % is set by controls: 0 for no effect and ±100 for the full control effect; luciferase read-out
Cruzain noTriton: blocks cruzain activity in detergent-free assay | P25779 | purified cruzain, Z-FR-AMC fluorescence, no detergent | Potency, µM, for inactives: max response, negative = inhibition, usual class: inhibitors | 2.3% of 200,000 active | AID 1476;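 note: plate controls were enzyme without inhibitor for no effect and buffer without enzyme for full effect; nearly all actives have a fitted effect of over 40% in size; top concentration of the series not given in the record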
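Detergent-free condition (0.00005% Triton X-100) in acetate buffer pH 5.5 with DTT. 1.5 nM enzyme and compound were pre-mixed 15 min, then 2 uM Z-FR-AMC substrate added; reaction progress from fluorescence change between first and third reads (60 s).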
SARS PLP yeast: inhibitors of SARS-CoV papain-like protease in yeast; S. cerevisiae expressing SARS-CoV PLpro, growth rescue; control for the full effect not named in the record; 0.19% of 330,000 active; Potency, µM (titrated, usually from 32.9 µM), inactives show at the highest dose activity, positive = growth rescue; active means well fitted rising curve with a large enough effect; inconclusive means small, poorly fitted or top-dose-only effect; inactive means no such curve, though single readings can be large or run the other way; note: 0% is about no effect; nearly all actives have a fitted effect of over 55% in size; growth read by luminescence after 48 h
Numbers without * were called inactive; ? = inconclusive; nt = not tested or not shown; & = joins results of further samples; [ ] = dose if it differs, or a comment. Unless noted, calls come from the whole dose curve; as a rule, active = well fitted curve in the direction sought with a large enough effect; inconclusive = small, poorly fitted or top-dose-only effect, or another doubt; inactive = no such curve, though single readings can be large; an effect the other way counts as inactive or inconclusive. Potency is the fitted concentration of half-maximal effect.

SMILES | 2A StopGo | NS1 function inh | RE007 growth inh | Cruzain Triton | LASV entry inh | Marburg entry inh | Cruzain noTriton | SARS PLP yeast
COc1ccccc1NC(=O)c1nn(-c2ccc(Cl)cc2)ccc1=O | -18% | 4% | 6% | 4.0% | 3% | -2% | -2% | 5%
COc1ccc(OC)c(CN(CCCN2CCOCC2)S(=O)(=O)c2ccc(NC(C)=O)cc2)c1 | 24% | -3% | 15% | -0.4% | -19% | -1%&-1% | 6% | 3%
Cc1cccc2c1cnn2C(=O)CCC(=O)N1CC(C)CC(C)C1 (stereo not given) | -20% | -37% | -3% | nt | nt | nt | nt | -6%
Cc1nn(-c2ccccc2)c(N2CCCC2)c1/C=N/NC(=O)c1cccc(S(=O)(=O)Nc2ccc(Cl)cc2)c1 | -4% | 27% | -8% | -6.4% | ? | ? | ? | 17%
CSc1ccc(CNC(=O)c2cc3cc(S(=O)(=O)N4CCCCC4)ccc3n2C)cc1 | -31% | nt | nt | 0.3% | -10%[46.1 µM] | nt | ? | nt
CCOn1c(=O)c(-c2cccs2)[n+]([O-])c2ccccc21 | nt | -9% | -25% | 1.7% | 5% | 22% | 0% | -3%
CC(C)(C)c1ccc(OCCC(=O)NNC(=O)c2ccccc2)cc1 | -11% | nt | -8% | nt | 11% | ? | nt | -1%
CCCCc1ccc(N/C(N)=N/c2nc(C)cc(C)n2)cc1 | 25µM* | -8% | 4% | nt | ? | ? | nt | -1%
Cc1ccc(C(c2nnnn2C2CCCCC2)N2CCc3ccccc32)cc1 (stereo not given) | -16% | -3% | -16% | -1.3% | 6% | ? | 25µM* | -39%
NNc1nc2cc3c(cc2s1)OCCO3 | 0% | 0% | -5% | nt | nt | nt | nt | -8%
COc1ccc(OC)c(-c2csc(NC(=O)C3=NN(c4ccccc4)C(=O)CC3)n2)c1 | -23% | 17% | 0% | nt | ? | ? | nt | 1%
O=C(CCS(=O)(=O)c1ccc(Br)cc1)N1CCN(Cc2ccccc2)CC1 | ? | -8% | -22% | -0.2% | -15% | -16%[46.1 µM] | 10% | 5%
O=C(Nc1ccncc1)c1cccc(S(=O)(=O)N2CCCC2)c1 | ? | -6% | 6% | nt | ? | ? | nt | 3%
CCN(CC)CC(O)CN(c1ccccc1)S(=O)(=O)c1ccc2ccccc2c1 (stereo not given) | -3% | 1% | 7% | nt | ? | ? | nt | 2%
CCOC(=O)C1(CCOc2ccccc2)CCN(Cc2ccc3nonc3c2)CC1 | ? | -4% | 0% | nt | 6% | 5%[46.1 µM] | nt | 0%
Cc1cc(Nc2ccccc2)c2c([N+](=O)[O-])cc(C)c(C)c2n1 | -18% | 2% | -7% | -0.9% | -12% | ? | -13% | -7%
CCN(CC)C(=O)c1sc(NC(=O)c2cc(-c3ccc(C)s3)nc3ccccc23)c(C(=O)OC)c1C | ? | 1% | -5% | -2.3% | ? | -5% | -3% | 1%
O=C(Nc1ccccc1)C1=C[C@@H](C2CC2)C[C@@H](OCCCCO)O1 | 50%[activator] | -4% | -2% | nt | nt | nt | nt | -2%
Cc1ccc(S(=O)(=O)Nc2ccc3nc(C)oc3c2)cc1 | -13% | nt | 2% | nt | -26%[46.1 µM] | -28% | nt | nt
CCn1c(CN2CCOCC2)nc2cc(NC(=O)c3cccc([N+](=O)[O-])c3)ccc21 | -5% | nt | nt | -3.5% | 8%[46.1 µM] | ? | -13% | nt
COc1ccc(C2C(C(N)=O)=C(C)Nc3nc(CCCO)nn32)cc1 (stereo not given) | 5%&-5% | 1% | -8% | -0.5% | ? | ? | -13% | 0%
CC(C)CN(CCCNC(=O)CN1C(=O)COc2ccc(S(=O)(=O)N3CCOCC3)cc21)CC(C)C | 5% | 3% | 0% | nt | nt | nt | nt | -4%
N#CCCN(Cc1cccnc1)C(=S)NC(=O)c1ccco1 | -4% | nt | 4% | nt | 3% | 29%[46.1 µM] | nt | 2%
COCCCn1c(=O)c2sccc2n2c(CCCC(=O)Nc3cccc(C(F)(F)F)c3)nnc12 | -3% | nt | nt | -1.2% | -8%[46.1 µM] | nt | ? | nt
Cc1c(NC(=O)CSc2n[nH]c(-c3ccccc3)n2)c(=O)n(-c2ccccc2)n1C | 17% | 7% | -5% | 6.7% | 1% | 0% | -3% | 12%
CCOc1ccccc1CN1CCCC(C(=O)c2cc(F)ccc2F)C1 (stereo not given) | -18% | -1% | -13% | nt | 3%[46.1 µM] | ? | nt | 22%
COCC(C)n1c(SCC(=O)NC(=O)Nc2ccc3c(c2)OCCO3)nc2ccccc2c1=O (stereo not given) | nt | -31% | 10% | -0.4% | 2% | -14% | 7% | -1%
CCOC(=O)c1c(NC(=O)CNCCOC)sc2c1CCCC2 | -5% | -5% | -8% | -9.1% | 10% | 22% | 0% | -6%
N=c1ccn(Cc2c(Cl)cccc2Cl)cc1 | -28% | 2% | -23% | nt | -13%[46.1 µM] | ? | nt | 0%
Cc1cc(C)cc(NC(=O)c2cc(Cl)sc2Cl)c1 | 4% | 4% | -6% | 2.5% | -4% | -17% | -12% | 2%
Cc1occc1C(=O)Nc1ccc(S(=O)(=O)N2CCCC2)cc1 | 8% | -6% | -5% | -3.6% | -10% | 13% | -7% | 4%
CCOc1nc(Oc2cccc(C(=O)O)c2)nc(Oc2cccc(C(=O)O)c2)n1 | -9% | 1% | 2% | -2.9% | 4% | -2% | 4% | 8%
CC(C)(C)c1ccc2c(c1)N(CC(=O)N1CCCC1)C(=O)CO2 | -14% | 4% | 2% | nt | nt | nt | nt | 1%
O=C1N/C(=C\c2ccccc2)c2ccccc21 | 37%[activator] | -21% | -27% | -1.2% | 10% | ? | -1% | -10%
COc1ccc(C(=O)N2CCC(C(=O)NCc3ccccn3)CC2)cc1 | 17% | -1% | -1% | 3.9% | ? | -2% | 4% | -3%
CN1CCN(c2c(F)cc([N+](=O)[O-])c(N)c2Br)CC1 | -3% | nt | 5% | nt | ? | -3%[46.1 µM] | nt | 1%
CC1CCN(S(=O)(=O)c2ccc3[nH]cc(C(=O)NCc4ccc(F)cc4)c(=O)c3c2)CC1 | -9% | nt | nt | -1.4% | ? | nt | -2% | nt
O=C(CCNC(=O)C1CCN(S(=O)(=O)c2ccc(F)cc2)CC1)NCc1cccc(Cl)c1 | -22% | -1% | 5% | nt | nt | nt | nt | 2%
O=C(Nc1ccc([N+](=O)[O-])c(NC(=O)C2CCCO2)c1)C1CCCO1 (stereo not given) | 15% | -1% | -2% | -18% | -4% | ? | -8% | -3%
CCOC(=O)C1(CC)CC(CSc2nc3ccccc3[nH]2)OC1=O (stereo not given) | ? | -6% | 7% | 2.1% | 4% | ? | 2% | 1%
O=C(Nc1ccc(F)cc1)N1CCCN(c2ccc(C(F)(F)F)cn2)CC1 | -17% | -3% | -21% | nt | -12%[46.1 µM] | ? | nt | -1%
Cc1cc(Nc2cc(F)ccc2C)n2ncnc2n1 | -4% | 6% | 4% | 1.7% | nt | nt | 4% | 24%
O=c1c2ccccc2nc(-c2ccc(Cl)c(Cl)c2)n1O | -23% | -174% | ? | -1.0% | ? | 13%[46.1 µM] | -1% | -3%
O=C(/C=C/c1ccc2c(c1)OCO2)Nc1nc(-c2ccccc2)cs1 | 14µM* | -4% | 23% | -1.7% | -27% | ? | ? | 4%
CCOc1cccc(-c2c(C(=O)N/N=C(\C)c3ccccn3)nnn2-c2nonc2N)c1 | -9% | -8% | 3% | nt | nt | nt | nt | -9%
CC1=NNC(=O)C1Oc1ccccc1 (stereo not given) | 41%[activator] | 0% | 2% | nt | 23%[46.1 µM] | 4%[46.1 µM] | nt | 0%
CCOC(=O)c1ccc(NC(=O)C2=C(C)Nc3nc(SCc4ccc(Cl)cc4)nn3C2c2ccc(OC)cc2)cc1 (stereo not given) | -12% | nt | nt | -2.2% | -14%[46.1 µM] | 0%[46.1 µM] | -6% | nt
COC(=O)Cn1c(CN2CCN(c3ccc(OC)cc3)CC2)nc2c1c(=O)[nH]c(=O)n2C | -9% | nt | nt | -1.4% | 15%[46.1 µM] | 2%[46.1 µM] | 0% | nt
O=S(=O)(c1ccc(F)cc1)c1nc(-c2ccccc2F)oc1N1CCCCC1 | -8% | 2% | -12% | -10% | -22% | -6% | -5% | -4%
CCn1c(Cc2c(C)[nH]c3ccccc23)n[nH]c1=S | -6% | 0% | -10% | 3.5% | -4% | -9% | 3% | 2%
CCC(C)c1ccc(OCC(=O)NNC(=O)C2CCCCC2)cc1 (stereo not given) | -19% | 4% | 4% | nt | -5%[46.1 µM] | -6%[46.1 µM] | nt | 2%
CC1([N+](=O)[O-])COP(=O)(Nc2ccccc2F)OC1 (stereo not given) | 0% | nt | -12% | nt | 5%[46.1 µM] | 8% | nt | nt
COc1ccccc1N1C(=O)N(CC(=O)C(C)(C)C)c2ccccc2S1(=O)=O | -15%&-11% | 5% | 3% | 1.9% | -2%[46.1 µM] | nt | 7% | 0%
CCOc1ccc(-n2c(=O)c3c(C)c(C)sc3n(Cc3ccc(C(C)(C)C)cc3)c2=O)cc1 | -9% | nt | nt | -0.1% | -9%[46.1 µM] | ? | -7% | nt
Cc1ccccc1OCC(=O)NCC(=O)N/N=C/C=C/c1ccccc1 | nt | -3% | nt | -1.8% | nt | -1% | -9% | 10%

Three neighbouring entries already listed, quoted:
SMILES | 2A StopGo | NS1 function inh | RE007 growth inh | Cruzain Triton | LASV entry inh | Marburg entry inh | Cruzain noTriton | SARS PLP yeast
COc1ccccc1N1C(=O)N(CC(=O)C(C)(C)C)c2ccccc2S1(=O)=O | -15%&-11% | 5% | 3% | 1.9% | -2%[46.1 µM] | nt | 7% | 0%
CCOc1ccc(-n2c(=O)c3c(C)c(C)sc3n(Cc3ccc(C(C)(C)C)cc3)c2=O)cc1 | -9% | nt | nt | -0.1% | -9%[46.1 µM] | ? | -7% | nt
Cc1ccccc1OCC(=O)NCC(=O)N/N=C/C=C/c1ccccc1 | nt | -3% | nt | -1.8% | nt | -1% | -9% | 10%
